Assay outcomes as filed in PubChem.
UCH37 DUB inh – inhibitors of human deubiquitinating enzyme UCH37 | purified proteasome/UCH37, Ub-AMC cleavage fluorescence | 330,000 tested, 0.33% active | inhibition, % (test concentration not listed);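 active means mean of two replicates above 20%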;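 further: 0% = compound-free wells with enzyme and 100% = wells lacking proteasome; stock transfer was 100 nL into about 20 µL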
Target sequence (Q9Y5K5 whole entry, looked up): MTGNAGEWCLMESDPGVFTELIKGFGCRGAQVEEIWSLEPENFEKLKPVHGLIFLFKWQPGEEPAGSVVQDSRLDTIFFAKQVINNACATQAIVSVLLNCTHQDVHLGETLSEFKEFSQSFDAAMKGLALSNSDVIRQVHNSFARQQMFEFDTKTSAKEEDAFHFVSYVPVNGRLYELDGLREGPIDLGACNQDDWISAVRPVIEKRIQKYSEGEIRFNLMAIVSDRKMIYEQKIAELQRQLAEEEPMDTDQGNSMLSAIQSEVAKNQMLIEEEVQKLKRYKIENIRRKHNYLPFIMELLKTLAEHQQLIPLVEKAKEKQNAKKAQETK
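System: Proteasome-associated human UCH37 deubiquitinase; Input: 0.15 nM proteasome in added enzyme buffer; Also added: Ub-AMC substrate from 1 µM stock; Incubation: 30 min compound-proteasome preincubation then 25 min substrate reaction, room temperature; Detection: fluorescence, ex 355 nm, em 460 nm; Read-out: % inhibition of Ub-AMC cleavage fluorescence; Benchmarks: no-proteasome and no-compound wells.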
ALR H2O2 inh – human ALR oxidase inhibition via reduced H2O2; purified ALR, DTT oxidation, H2O2 HRP-luminol luminescence; inhibition, % (test concentration not listed); 290,000 tested, 3.8% active;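 active means mean and each replicate at 75% or more; inconclusive means only one of the two met; inactive means neither met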;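 further: stock transfer was 7.5 nL into about 7.5 µL; 0% = neutral wells and 100% = wells with inactivated enzyme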
Target sequence (P55789 whole entry, looked up): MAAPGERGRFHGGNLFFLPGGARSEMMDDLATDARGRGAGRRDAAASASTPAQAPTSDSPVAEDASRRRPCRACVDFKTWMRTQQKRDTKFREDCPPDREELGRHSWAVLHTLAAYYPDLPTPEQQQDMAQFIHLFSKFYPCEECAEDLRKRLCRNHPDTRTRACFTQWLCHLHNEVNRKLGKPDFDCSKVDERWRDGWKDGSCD
B2AR ag – activates human beta-2 adrenergic receptor causing internalization. response, % (concentration not given with the values). 340,000 tested, 0.43% active. Am2.2-beta2AR cells, FAP receptor internalization, flow cytometry; reference of the scale not given here. P07550;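 active means response above a set limit, near 3 SD of response in nonfluorescent compounds, cut at about 42% in these data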;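 further: stock transfer was 100 nL into about 11 µL; a reference agonist was the positive control; negative values mostly stem from fluorescent compounds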
Target sequence (P07550 whole entry, looked up): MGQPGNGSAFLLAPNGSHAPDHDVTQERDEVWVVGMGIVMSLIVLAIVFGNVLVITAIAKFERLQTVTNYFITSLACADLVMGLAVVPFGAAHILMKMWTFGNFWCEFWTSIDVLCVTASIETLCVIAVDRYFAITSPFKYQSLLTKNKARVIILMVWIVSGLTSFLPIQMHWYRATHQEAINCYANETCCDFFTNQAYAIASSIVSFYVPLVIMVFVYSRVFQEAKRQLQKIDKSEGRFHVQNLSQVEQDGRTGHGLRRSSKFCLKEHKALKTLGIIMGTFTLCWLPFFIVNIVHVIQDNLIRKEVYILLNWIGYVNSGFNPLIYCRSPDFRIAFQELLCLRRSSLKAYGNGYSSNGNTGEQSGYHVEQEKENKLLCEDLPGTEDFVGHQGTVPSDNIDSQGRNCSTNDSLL
LANA-H2A inh – blocks KSHV LANA binding to histone H2A/H2B; Q9QR71; cell-free LANA-H2A/H2B peptide, fluorescence polarization; AID 2629; inhibition, % (test concentration not listed); 320,000 tested, 0.6% active; in the data active means inhibition mostly above about 10%, no sharp cut-off; inactive means mostly below about 6.7%;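 further: stock transfer was 7.5 nL into about 10 µL; 0% = median of vehicle wells and 100% = median of positive control wells; one replicate is shown; the record names a cut of 25% in any replicate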
FGF22 binding – FGF22 (human) thermal shift binding | Q9HCT0 | recombinant FGF22 thermal shift, SYPRO orange fluorescence; percent of sucrose octasulfate shift, DMSO zero | calls only at 9.99 µM | 340,000 tested, 1.5% active | AID 651658;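 active means melting point raised past a set limit in the mean and every replicate; inconclusive means no clear call; three in four hits are not shown here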
E coli growth – E. coli growth inhibition; Escherichia coli growth, OD600, 23 h; active compounds read low; OD600 absorbance (test concentration not listed); 330,000 tested, 0.21% active;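 active means OD600 absorbance below the run mean of sample wells minus 3.6 SD, in any replicate, cut at about 0.56 in these data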;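 further: stock transfer was 300 nL into about 60 µL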
HNF4A DNA FP – change in binding of human HNF4 alpha to DNA; HNF4a-FITC DNA binding, fluorescence polarization, 1 h; activity change, % at 10 µM; P41235; 360,000 tested, 0.3% active; in the data active means activity change above about 30%, passing the limit was not always enough;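 further: controls were the assay level and a saturating level of protein; the project sought stronger binding though the title names inhibitors; some compounds called inactive have numbers as strong as hits; positive values seem to mean higher polarization but the record does not say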
* hit, by the source's call.

Clc1ccc2noc(-c3ccccc3)c2c1 was read as UCH37 DUB inh 4.5, ALR H2O2 inh -10.0, B2AR ag 16.4, LANA-H2A inh 0.8, FGF22 binding inactive, E coli growth 0.707 and HNF4A DNA FP -2.0.
For COC(=O)N/N=C(C)\C=C\c1ccco1 the results were ALR H2O2 inh -3.7, B2AR ag 5.4, LANA-H2A inh 0.9, FGF22 binding inactive and HNF4A DNA FP 3.8.
For COc1ccc(CCn2c(C)cc(C(=O)CSc3nnc(N)s3)c2C)cc1 the results were UCH37 DUB inh 2.7, ALR H2O2 inh 6.5, B2AR ag 8.6, LANA-H2A inh -2.7, E coli growth 0.733 and HNF4A DNA FP -0.1.
Screening COc1nnc(-c2ccc(C)c(S(=O)(=O)NC(C)(C)CO)c2)c2ccccc12 returned UCH37 DUB inh 2.1, ALR H2O2 inh -0.5, B2AR ag 15.5, LANA-H2A inh -15.7, FGF22 binding inactive, E coli growth 0.634 and HNF4A DNA FP 3.4.
For Cc1ccc(O)c(NC(=O)c2cc(-c3ccco3)on2)c1 the results were UCH37 DUB inh 1.1, B2AR ag 10.6, LANA-H2A inh -3.4, FGF22 binding inactive, E coli growth 0.676 and HNF4A DNA FP 3.3.
For Cc1ccccc1CN1C(=O)C2(OCCCO2)c2ccccc21 the results were UCH37 DUB inh -0.4, B2AR ag 0.7, FGF22 binding inactive, E coli growth 0.744 and HNF4A DNA FP 6.5.
`O=C(Nc1cc(Cl)ccc1-n1cncn1)c1cn2ccccc2n1` gave UCH37 DUB inh 1.0, ALR H2O2 inh -3.0, B2AR ag -8.4, LANA-H2A inh 0.8, FGF22 binding inactive, E coli growth 0.688 and HNF4A DNA FP -0.1.
O=C(NC(=O)c1ccccc1)OCC(F)(F)F was read as UCH37 DUB inh -0.8, ALR H2O2 inh -2.2, B2AR ag -8.0, LANA-H2A inh 1.4, E coli growth 0.739 and HNF4A DNA FP 5.8.
Screening C=CCNC(=O)NS(=O)(=O)c1ccc(C)cc1 returned UCH37 DUB inh 0.3, ALR H2O2 inh -0.7, B2AR ag 4.8, LANA-H2A inh 1.3, E coli growth 0.692 and HNF4A DNA FP -0.5.
Screening O=C(OCC(=O)N1CCN(S(=O)(=O)c2ccc(Cl)cc2)CC1)c1cccc(OC(F)F)c1 returned UCH37 DUB inh 2.0, ALR H2O2 inh -1.4, B2AR ag -4.8, LANA-H2A inh -2.8, FGF22 binding inactive, E coli growth 0.696 and HNF4A DNA FP 1.1.
For Cc1ccccc1S(=O)(=O)Cc1ccc(C(=O)O)o1 the results were UCH37 DUB inh 0.7, ALR H2O2 inh -4.4, B2AR ag 2.5, LANA-H2A inh -1.5, FGF22 binding inactive, E coli growth 0.676 and HNF4A DNA FP -2.1.
Screening C#CCOCCOCCOCCNc1nc(N2CCN(C(=O)[C@H](CCC(=O)O)n3cc(CN)nn3)CC2)nc(N2CCN(C(=O)[C@H](CCCN=C(N)N)n3cc(C(N)[C@@H](C)CC)nn3)CC2)n1 (some centres undefined) returned UCH37 DUB inh 1.7, B2AR ag 2.2, LANA-H2A inh -2.8, FGF22 binding inactive, E coli growth 0.707 and HNF4A DNA FP -0.5.

Overlap with the part before: 2 compounds, then new ones.
For Cc1ccccc1S(=O)(=O)Cc1ccc(C(=O)O)o1 the results were UCH37 DUB inh 0.7, ALR H2O2 inh -4.4, B2AR ag 2.5, LANA-H2A inh -1.5, FGF22 binding inactive, E coli growth 0.676 and HNF4A DNA FP -2.1.
Screening C#CCOCCOCCOCCNc1nc(N2CCN(C(=O)[C@H](CCC(=O)O)n3cc(CN)nn3)CC2)nc(N2CCN(C(=O)[C@H](CCCN=C(N)N)n3cc(C(N)[C@@H](C)CC)nn3)CC2)n1 (some centres undefined) returned UCH37 DUB inh 1.7, B2AR ag 2.2, LANA-H2A inh -2.8, FGF22 binding inactive, E coli growth 0.707 and HNF4A DNA FP -0.5.
Screening O=C(NCCc1csc(-c2cccnc2)n1)c1ccccc1Br returned UCH37 DUB inh -0.1, ALR H2O2 inh -1.1, B2AR ag -5.0, LANA-H2A inh -1.0, FGF22 binding inactive, E coli growth 0.717 and HNF4A DNA FP 6.0.
Screening O=C(COC(=O)Cc1ccc(Cl)cc1)Nc1cc(S(=O)(=O)N2CCOCC2)ccc1N1CCCC1 returned UCH37 DUB inh 3.2, ALR H2O2 inh -0.2, B2AR ag -0.2, LANA-H2A inh -3.4, FGF22 binding inactive, E coli growth 0.661 and HNF4A DNA FP 2.1.
For CC(=O)Nc1ccc(OCC(=O)NCc2ccccc2)cc1 the results were UCH37 DUB inh 4.5, ALR H2O2 inh -14.3, B2AR ag 4.4, LANA-H2A inh -5.2, FGF22 binding inactive, E coli growth 0.692 and HNF4A DNA FP 2.1.
For O=C1S/C(=C\C=C\c2ccco2)C(=O)N1c1ccc(O)cc1 the results were UCH37 DUB inh 6.6, ALR H2O2 inh 38.1, B2AR ag -77.7, LANA-H2A inh 6.8, E coli growth 0.682 and HNF4A DNA FP 2.5.
Screening COc1ccc(N2CCN(C(=O)C(OC(C)=O)c3ccccc3)CC2)cc1 (centres undefined) returned UCH37 DUB inh 2.0, ALR H2O2 inh 55.0, B2AR ag -0.5, LANA-H2A inh 5.6, E coli growth 0.699 and HNF4A DNA FP -2.3.
For COc1ccc(-c2[nH]ncc2-c2ccc3c(c2)OCCO3)c(O)c1 the results were UCH37 DUB inh 4.8, ALR H2O2 inh 91.7*, B2AR ag -5.1, LANA-H2A inh 1.1, E coli growth 0.767 and HNF4A DNA FP 2.3.
O=C(CNC(=O)c1ccccc1F)N/N=C\C=C\c1ccccc1 was read as ALR H2O2 inh 3.7, B2AR ag -4.4, LANA-H2A inh 0.7, FGF22 binding inactive and HNF4A DNA FP -5.0.
For C=CCn1c(SC/C=C/c2ccccc2)nnc1-c1sc(N)nc1C the results were UCH37 DUB inh 4.6, ALR H2O2 inh -8.2, B2AR ag 8.6, LANA-H2A inh 1.6, E coli growth 0.763 and HNF4A DNA FP 2.7.
Screening CC(=O)NC1(c2ccc(F)cc2)CCN(C(=O)Nc2ccc(F)cc2F)CC1 returned UCH37 DUB inh 1.6, ALR H2O2 inh -1.5, B2AR ag 4.2, LANA-H2A inh -1.3, E coli growth 0.694 and HNF4A DNA FP 2.2.
For CC(=O)/C(N=Nc1ccc2c(c1)OCCO2)=C(\C)O the results were UCH37 DUB inh 9.0, ALR H2O2 inh 4.3, B2AR ag -3.7, LANA-H2A inh 1.4, FGF22 binding inactive, E coli growth 0.649 and HNF4A DNA FP 3.0.
Cn1c(=O)cc(C(=O)N/N=C/c2ccc(Cl)cc2)[nH]c1=O was read as ALR H2O2 inh 28.1, B2AR ag -1.7, LANA-H2A inh -2.7, FGF22 binding inactive and HNF4A DNA FP 2.1.
CN(c1ccccc1)c1ccc(/C=N/N2CCOCC2)cc1 was read as ALR H2O2 inh 99.1*, B2AR ag 11.4, LANA-H2A inh -0.9 and HNF4A DNA FP 5.0.
For CC(=O)c1cccc(NC(=O)C2CCN(S(=O)(=O)c3ccc(C)cc3)CC2)c1 the results were UCH37 DUB inh 5.6, ALR H2O2 inh -6.3, B2AR ag -1.8, LANA-H2A inh -0.1, E coli growth 0.733 and HNF4A DNA FP -2.4.
Cc1ccccc1NC(=O)Cc1nnc(SCC(=O)c2ccc(Br)cc2)n1C was read as UCH37 DUB inh 5.0, ALR H2O2 inh -4.4, B2AR ag -1.2, LANA-H2A inh -2.6, E coli growth 0.747 and HNF4A DNA FP -0.2.
`NS(=O)(=O)c1ccc(CNC(=O)c2sccc2-c2ccccc2)cc1` gave UCH37 DUB inh 1.6, ALR H2O2 inh -2.5, B2AR ag -1.1, LANA-H2A inh -2.6, FGF22 binding inactive, E coli growth 0.674 and HNF4A DNA FP 2.7.
For O=C(CCc1nnc2ccc(NCc3ccccc3)nn12)NC1CCCCC1 the results were UCH37 DUB inh 0.4, ALR H2O2 inh -2.9, B2AR ag 1.9, LANA-H2A inh 4.4, FGF22 binding inactive, E coli growth 0.663 and HNF4A DNA FP -2.2.
Screening Cc1ccc(C(=O)NNC(=O)Cc2ccccc2)cc1 returned UCH37 DUB inh 4.3, ALR H2O2 inh -6.1, B2AR ag -2.3, LANA-H2A inh 1.6, E coli growth 0.693 and HNF4A DNA FP 2.3.
Cc1ccccc1OCC(O)CN1C(=O)c2ccccc2C1=O (centres undefined) was read as UCH37 DUB inh 4.2, ALR H2O2 inh -1.2, B2AR ag -5.3, LANA-H2A inh 8.6, FGF22 binding inactive, E coli growth 0.639 and HNF4A DNA FP 1.3.
Screening CCN(CC)C(=O)C(=O)N/N=C/c1cccs1 returned ALR H2O2 inh -6.4, B2AR ag 0.7, LANA-H2A inh 7.0 and HNF4A DNA FP 1.5.
`CC(CCc1ccccc1)NC(=O)CCNC(=O)Cn1ccc2ccccc2c1=O` (centres undefined) gave UCH37 DUB inh 0.1, ALR H2O2 inh -1.9, B2AR ag 8.0, LANA-H2A inh 2.9, E coli growth 0.693 and HNF4A DNA FP -2.1.
For O=C(CN1CCN(S(=O)(=O)c2ccccc2)CC1)N1CCc2ccccc21 the results were UCH37 DUB inh 1.7, B2AR ag 0.2, LANA-H2A inh -1.7, FGF22 binding inactive, E coli growth 0.674 and HNF4A DNA FP -2.8.
For Cn1c(Oc2ccc3c(c2)OCO3)nc2c1c(=O)n(Cc1ccccc1)c(=O)n2C the results were UCH37 DUB inh 0.3, ALR H2O2 inh -1.1, B2AR ag 8.8, LANA-H2A inh 2.6, E coli growth 0.735 and HNF4A DNA FP 1.6.
`COc1ccccc1N1CCN(C(=O)CCC(=O)N2CCN(c3ccccc3OC)CC2)CC1` gave UCH37 DUB inh -2.1, ALR H2O2 inh inconclusive, B2AR ag -0.6, LANA-H2A inh 1.6, FGF22 binding inactive, E coli growth 0.702 and HNF4A DNA FP -4.8.
For O=C(COCc1cc(-c2ccc3c(c2)OCO3)on1)N1CCN(c2ccccc2)CC1 the results were ALR H2O2 inh 12.8, B2AR ag 9.8, LANA-H2A inh -1.0, FGF22 binding inactive and HNF4A DNA FP -0.6.
`CC1=C(C(=O)OCc2ccccc2)N2C(=O)[C@@H](NC(=O)COc3ccccc3)[C@H]2SC1` gave UCH37 DUB inh -19.3, ALR H2O2 inh 5.2, B2AR ag -12.2, LANA-H2A inh -3.5, FGF22 binding inactive, E coli growth 0.779 and HNF4A DNA FP -1.6.
`CCOc1ccc(CCNC(=O)c2ccc(NC3=NC4CS(=O)(=O)CC4S3)cc2)cc1` (centres undefined) gave UCH37 DUB inh 4.2, ALR H2O2 inh -3.9, B2AR ag 2.9, LANA-H2A inh 3.3, FGF22 binding inactive, E coli growth 0.678 and HNF4A DNA FP 0.9.
For O=C(N/N=C/c1cccc([N+](=O)[O-])c1)c1ccc2nc[nH]c2c1 the results were ALR H2O2 inh -0.5, B2AR ag 5.2, LANA-H2A inh -1.4 and HNF4A DNA FP 0.0.
O=C(O)c1ccc2c(c1)C(=O)N(C(Cc1ccc(O)cc1)C(=O)O)C2=O (centres undefined) was read as UCH37 DUB inh 2.1, ALR H2O2 inh 28.4, B2AR ag 7.1, LANA-H2A inh -0.9, E coli growth 0.669 and HNF4A DNA FP 1.4.
Screening OCC[C@@H]1NCc2cc(CO)cc(-c3ccccc3)c21 returned UCH37 DUB inh -0.7, B2AR ag -7.5, FGF22 binding inactive, E coli growth 0.703 and HNF4A DNA FP -1.5.
Cc1[nH]ccc2c1[nH]c1cc(=O)ccc12 was read as B2AR ag -7.6, LANA-H2A inh 0.1, FGF22 binding inactive and HNF4A DNA FP -1.6.
`CN(C)C(CNC(=O)c1ccc2c(=O)n(-c3ccccc3F)c(=S)[nH]c2c1)Cc1ccccc1` (centres undefined) gave UCH37 DUB inh -8.9, ALR H2O2 inh 2.1, B2AR ag -8.4, LANA-H2A inh 0.0, FGF22 binding inactive, E coli growth 0.689 and HNF4A DNA FP 3.0.
Screening Cc1cc(C)c(-c2csc(NC(=O)C3=NN(c4ccccc4)C(=O)CC3)n2)c(C)c1 returned UCH37 DUB inh -1.9, ALR H2O2 inh -1.4, B2AR ag -3.2, LANA-H2A inh -2.6, FGF22 binding inactive, E coli growth 0.693 and HNF4A DNA FP 2.6.

Some of the compounds tested (hit frequency here may not be typical).
